High-throughput results (PubChem)
VDR inhibitor: Inhibitors of the vitamin D receptor (VDR): qHTS; 400,000 tested, 0.93% active; Potency, µM, without a hit: max response, negative = inhibition, usual class: inhibitors; VDR-SRC2-3 peptide fluorescence polarization, 2 h; Vitamin D3 receptor (Homo sapiens), P11473; AID 504847, 2011; active means well fitted inhibition curve with a large enough effect; inconclusive means small, poorly fitted or top-dose-only effect, or another doubt; inactive means no such curve, though single readings can be large or run the other way; further: series mostly up to about 120 µM
Target sequence (P11473 whole entry, looked up): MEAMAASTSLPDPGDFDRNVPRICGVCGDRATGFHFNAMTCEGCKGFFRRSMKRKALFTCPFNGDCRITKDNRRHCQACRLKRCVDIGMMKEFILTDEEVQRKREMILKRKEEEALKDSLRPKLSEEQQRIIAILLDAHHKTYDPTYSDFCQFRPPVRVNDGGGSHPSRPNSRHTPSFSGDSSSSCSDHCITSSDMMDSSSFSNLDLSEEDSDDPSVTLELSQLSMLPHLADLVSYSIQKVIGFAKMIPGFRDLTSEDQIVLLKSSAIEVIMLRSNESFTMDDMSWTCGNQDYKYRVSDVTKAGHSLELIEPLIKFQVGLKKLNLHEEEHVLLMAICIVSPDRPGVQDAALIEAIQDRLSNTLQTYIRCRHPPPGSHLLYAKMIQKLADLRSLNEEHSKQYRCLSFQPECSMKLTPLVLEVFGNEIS
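The screen uses fluorescence polarization to detect compounds that interfere with recruitment of the SRC2-3 coactivator peptide to VDR; plates are read after 2 h at room temperature.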
* hit, by the source's call; ? = inconclusive; & = joins results of further samples; ! = repeats disagree. On the % scale 0 is the no-effect control and ±100 the full control effect; potency means the concentration at half of the fitted maximal effect. An excerpt; count on the stated rates, not on these rows.

SMILES	VDR inhibitor
COc1ccc(C(C(=O)NC2CCCC2)N(C(=O)c2ccco2)c2cc3c(cc2C(C)=O)OCO3)cc1OC (stereo not drawn)	-15.6%
CCN(CC)CCN1C(=O)c2cccc3cc(N)cc(c23)C1=O	1.7%
N#CCCn1cnc2c1NC=NC2Cl (stereo not drawn)	11.0%
NNC(=S)Nc1ccc(S(=O)(=O)N2CCOCC2)cc1	-18.3%
Cc1nn(C)c(C)c1S(=O)(=O)N1CCCC(C(=O)N2CCN(c3ccccc3)CC2)C1 (stereo not drawn)	-2.6%
COc1ccc(/C=C2/C(=O)ON=C2c2ccccc2)cc1OC	39.8µM*
COc1ccccc1NC(=S)NN=C(C)c1ccccn1	?
OCCN1C2=NCCCN2c2ccccc21	-8.2%
COc1ccccc1S(=O)(=O)Cc1ccc(C(=O)N2CCOCC2)o1	-22.1%
Cc1noc(NC(=O)c2cccc(Cl)c2Cl)c1C#N	23.3%
CC(=O)Nc1nnc(SCc2cc(=O)c3cccc(C)c3[nH]2)s1	11.0%
CC1CC(C)CN(S(=O)(=O)c2cccc3cccnc23)C1 (stereo not drawn)	3.6%
CCc1nc2ccccc2c(=O)n1NC(=O)c1c(O)c2cccc3c2n(c1=O)CCC3	10.2%
O=C(CCc1ccccc1)NNC(=O)c1ccccc1F	0.0%
Cc1nc(SCC(=O)NC2CCCCC2)[nH]c(=O)c1C	-0.9%
CCCCNC(=O)c1ccc2nc(-c3ccco3)c(-c3ccco3)nc2c1	79.4µM*
COc1ccc(C(=O)Nc2ccccc2C(=O)N/N=C/c2ccco2)cc1	-3.1%
COc1cccc(CNC(=O)Cc2nc3nc(C)cc(C)n3n2)c1	-14.3%
O=[N+]([O-])c1ccc(N2CCN(c3ccc(Cl)nn3)CC2)cc1NC1CC1	-0.5%
NC(=O)C1CCN(C(=O)CN2C(=O)c3ccccc3S2(=O)=O)CC1	4.2%
COc1ccc(CNC(C)C23CC4CC(CC(C4)C2)C3)c(OC)c1OC (stereo not drawn)	-7.9%
COCCCNC(=O)COc1ccc(-c2nccc(-c3ccccn3)n2)cc1	-14.4%
S=C(NCCCc1ccccc1)Nc1ccccc1	-6.7%
O=C(CSc1ccc([N+](=O)[O-])cn1)Nc1ccccc1N1CCOCC1	4.2%
CCOC(=O)C1(Cc2ccccc2Cl)CCN(Cc2csc(C(C)=O)c2)CC1	-5.8%

Reprinted at random: 4 compounds from above.
SMILES	VDR inhibitor
CC1CC(C)CN(S(=O)(=O)c2cccc3cccnc23)C1 (stereo not drawn)	3.6%
Cc1nn(C)c(C)c1S(=O)(=O)N1CCCC(C(=O)N2CCN(c3ccccc3)CC2)C1 (stereo not drawn)	-2.6%
NC(=O)C1CCN(C(=O)CN2C(=O)c3ccccc3S2(=O)=O)CC1	4.2%
CCN(CC)CCN1C(=O)c2cccc3cc(N)cc(c23)C1=O	1.7%

(more compounds)
SMILES	VDR inhibitor
COc1cc(C2=CN(Cc3ccccc3)CCC2=O)cc(OC)c1OC	-3.1%
O=C(NCc1ccco1)C1CC(=O)N(c2ccc(Cl)cc2)C1 (stereo not drawn)	-8.3%
CC(=O)N1CCC(=NNS(=O)(=O)c2ccc(C)c([N+](=O)[O-])c2)CC1	3.5%
CCn1c(SCC(=O)N2CCc3ccccc32)nnc1-c1c[nH]c2ccccc12	4.8%
C/C(=N\N1CCN(Cc2ccc(Cl)cc2)CC1)c1ccc(F)cc1	-10.7%
COc1ccc(Cl)cc1-n1c(C)cc(C(=O)O)c1C	-2.3%
Cc1ccc(/C=N/Nc2nc(Cl)c(Cl)cc2Cl)s1	21.4%
CCOC(=O)c1c(C)[nH]c(C)c1S(=O)(=O)NCC(=O)N1CCN(c2cc(Cl)ccc2C)CC1	8.8%
Cc1ccc(NC(=O)N(Cc2ccc3c(c2)OCO3)Cc2cc3cc4c(cc3[nH]c2=O)OCCO4)cc1	-12.8%
CCOc1ccc(CNC(=O)C2CCC(=O)N2C2CCCC2)cc1OC (stereo not drawn)	7.2%
Cc1cc(C)cc(NC(=O)C(=O)NCCCN2CCCC2=O)c1	-1.4%
Cc1ccc(Cl)cc1NC(=O)CCCn1c(=O)c2cccn2c2ccccc21	-3.2%
CCOC(=O)[C@@H]1[C@H]2COc3ccc(Br)cc3[C@@H]2N2C(=O)N(c3ccc(Br)cc3)C(=O)[C@]12C	0.0%
Cc1nn(S(=O)(=O)c2ccc(C(C)C)cc2)c(C)c1S(=O)(=O)N1CCCCC1	3.9%
COc1ccc(C2NC(=S)NC3=C2CCc2ccccc23)cc1OC (stereo not drawn)	?
O=C(Nc1nc(-c2ccc(-c3ccccc3)cc2)cs1)C1CCCO1 (stereo not drawn)	-1.0%
CN(Cc1nccs1)C(=O)c1ccc2nc(Cc3ccccc3F)oc2c1	-9.8%
CCn1c(=O)cc(OCC(=O)N2CCN(c3cccc(C)c3C)CC2)c2ccccc21	2.1%
O=C(CCn1nnc2ccccc21)N/N=C\Cc1ccccc1	5.0%
CCC(C)[C@H](NC(=O)NCc1ccc(Cl)cc1)C(=O)O (stereo partly drawn)	-5.1%
CCOC(=O)C1(CCOc2ccccc2)CCN(Cc2cccc(OC)c2)CC1	-2.1%
O=C(CNc1cccc(S(=O)(=O)N2CCCC2)c1)Nc1cccc(Br)c1	-11.4%
Cc1cc(-c2nnc(SCC(=O)Nc3ccccc3)n2C)no1	-18.1%
O=C1/C(=C/c2cccc(Br)c2)SC(=S)N1CCC(=O)N(CCO)c1ccccc1	?
O=C(Nc1ccc(Cl)cc1)Nc1ccc(N2CCCC2)c(S(=O)(=O)Nc2ccccc2Cl)c1	-27.1%

Some of the entries so far, as a markdown table.
| Structure | VDR inhibitor |
| --- | --- |
| Cc1ccc(NC(=O)N(Cc2ccc3c(c2)OCO3)Cc2cc3cc4c(cc3[nH]c2=O)OCCO4)cc1 | -12.8% |
| COc1ccc(Cl)cc1-n1c(C)cc(C(=O)O)c1C | -2.3% |
| O=C(CNc1cccc(S(=O)(=O)N2CCCC2)c1)Nc1cccc(Br)c1 | -11.4% |
| Cc1ccc(Cl)cc1NC(=O)CCCn1c(=O)c2cccn2c2ccccc21 | -3.2% |

Following part.
SMILES	VDR inhibitor
CCN(C(=O)COC(=O)c1ccc(C=O)cc1)c1c(N)n(Cc2ccccc2)c(=O)[nH]c1=O	13.2%
CC(C)N(C(=S)NCc1ccccc1)C(C)C	6.5%
Cc1ccsc1C(C(=O)NC(C)(C)C)N(Cc1ccco1)C(=O)c1csnn1 (stereo not drawn)	-11.8%
CC(C)Cc1nc(SCC(=O)Nc2nnc(CC(C)C)s2)n[nH]1	-7.7%
Cc1ccc(N2CC(O)=C(c3ccccc3)C2=N)cc1	-26.0%
O=C(Cc1ccc(Cl)cc1)SCc1ccccc1	-17.6%
O=C(Nc1ccc(-c2cn3ccsc3n2)cc1)C1CC1	5.1%
Cc1nnc(SCC(=O)Nn2cnnc2)s1	8.2%
COc1ccc(N2CCN(C(=O)c3ccc(S(=O)(=O)N4CCCC4)cc3)CC2)cc1	6.4%
COc1cccc2sc3cc(C#CC4(O)CCCCC4)ccc3c(=O)c12	0.5%
COc1ccc(Nc2nc3ccc(Cl)cc3nc2-n2nc(C)cc2C)cc1	5.4%
Cc1cc(=O)[nH]c2ccccc12	-11.7%
NC(=O)C1CCN(C(=O)c2ccccc2SCC(=O)NCC2CCCCC2)CC1	-14.4%
Cc1cc(OCC(=O)Nc2cnn(CCCC(=O)O)c2)ccc1Cl	7.1%&-2.6%
NC(=O)c1cccc(CS(=O)(=O)c2ccc(Cl)cc2)c1	-6.1%
CCOc1c(Cl)cc(CNCc2ccncc2)cc1OC	10.9%
C=C(Nc1ccc(OCC)cc1)Nc1ccc(OCC)cc1	3.3%&-0.6%
CS(=O)(=O)N(CC(=O)N1CCOCC1)c1ccccc1Br	2.0%
Cc1ccc(C(=O)Nc2nc(-c3nnn(-c4cccc(Cl)c4C)c3C)ns2)cc1C	-13.1%
CS(=O)(=O)N1CCC[C@@]2(CCN(c3ncccn3)C2)C1	14.9%
CC(=O)N(c1ccccc1)C(C(=O)c1ccccc1)c1ccccc1 (stereo not drawn)	1.8%
Cc1ccc2cc(C)c3nnc(SCC(=O)Nc4nc5c(s4)CCCC5)n3c2c1C	1.5%
Cc1cccc(Cc2c(C)nc3c(C(=O)N4CCN(Cc5ccc6c(c5)OCO6)CC4)cnn3c2C)c1	-14.9%
CCc1ccccc1Nc1nn2c(=O)c3ccc(C(=O)NCc4cccs4)cc3nc2s1	-5.3%
CC(=O)N1CCN(S(=O)(=O)c2cccc(C(=O)Nc3ccccc3N3CCCCC3)c2)CC1	-7.5%

(cont.)
SMILES	VDR inhibitor
CC1Cc2ccccc2N1C(=O)NC1CC(=O)N(c2ccc3c(c2)OCCO3)C1 (stereo not drawn)	2.9%
COc1ccccc1NC(=O)C1=C(C)Nc2nc(SCc3ccc(Cl)cc3)nn2C1c1ccccc1Cl (stereo not drawn)	-9.0%
O=C(O)CCCCCNC(=O)OCC1c2ccccc2-c2ccccc21	5.8%
N#CC(C#N)=C(N)/C(C#N)=C/c1cc(O)c(O)c(O)c1	39.8µM*!
O=c1c2cnn(-c3ccccc3)c2ncn1Cc1cccnc1	18.3%
COc1cc(/C=N\NC(=O)CC#N)ccc1OC/C=C/c1ccccc1	14.6%
CCCCCCc1c(C)c2c(cc(C)c3c(C)c(C)oc32)oc1=O	9.8%
CCOC(=O)c1cncc(O)c1	5.6%
Cn1c(=O)c2c(ncn2CC(=O)Nc2nc(-c3ccc(F)c(F)c3)cs2)n(C)c1=O	-5.0%
C=CCNC(=O)c1onc(CSc2ccc(Cl)cc2)c1C(=O)NCC=C	-12.2%
Clc1ccccc1/C=N/N1CCN(Cc2ccccc2)CC1	12.3%
O=C(CSC1=NS(=O)(=O)c2cc(F)ccc2N1)NCc1ccccc1	-11.6%
Cc1ccc(C(=O)N/N=C\C2CC=CCC2)cc1[N+](=O)[O-] (stereo not drawn)	3.9%
Cc1ccc(CN2CCC(CNc3ncnc4onc(-c5ccc(F)cc5)c34)CC2)cc1	17.7%
COc1ccc(-c2nc3scc(CCNS(=O)(=O)c4ccc(C)cc4)n3n2)cc1	-1.5%
O=c1[nH][nH]cc1C=Nc1ccc(Cl)cc1	12.1%
Cc1ccc(S(=O)(=O)c2cc3cc(C(=O)Nc4ccc(C)cc4C)ccc3oc2=O)cc1	-0.4%
COc1cc(OC)cc(-c2c(-c3ccc(F)cc3)c3cc(-c4ccc(OC)nc4)ccc3n2C)c1	14.9%
O=C(NNS(=O)(=O)c1ccccc1)c1cnn(-c2ccccc2)c1-n1cccc1	1.6%
Cn1c(SCC(=O)N2CCCCCC2)nc2c([nH]c3ccccc32)c1=O	13.3%
CCC(=O)Nc1nnc(CSCc2ccc(F)cc2)s1	10.5%
C[C@H]1COC(=O)CC/C=C\C[C@H](CC(=O)N(CCO)Cc2ccccc2)C(=O)N1	10.2%
Cc1ccc(C(=O)NCCONC(=O)c2ccc(C)cc2)cc1	-6.9%
CN(C)CCCC1(O)c2ccccc2C=Cc2ccccc21	-2.9%
CC(C)(C)NC(=O)c1ccncc1	-1.0%

Further results:
SMILES	VDR inhibitor
CCOc1cc2c3c(c1)C1(C(=O)N3C(C)(C)C=C2C)C(C#N)=C(N)Oc2cc(O)ccc21 (stereo not drawn)	-18.3%
CCc1c(C2(O)CCCCC2)[nH]c2cnccc12	2.5%
CN(CC(=O)Nc1ccccc1Br)C(=O)c1ccccc1OCc1ccccc1Cl	-0.9%
Cc1nc(COC(=O)c2cc(O)c3ccccc3c2O)cs1	?
Cc1ccc(-n2nc3c(=O)n(CCCC(=O)NCCc4ccccc4)nc(C)c3c2C)cc1	11.8%&-1.6%
CCn1c(SCC(=O)N/N=C/c2ccccc2OCC(=O)O)nnc1-c1ccccc1	-9.6%
CCNC(=S)NN=C1CCC(C(C)(C)C)CC1 (stereo not drawn)	-15.6%
COCCNC(=O)C(c1ccc(Cl)cc1)N(C(=O)Cn1nnc2ccccc21)c1cccnc1 (stereo not drawn)	2.9%
Cc1cc(C)nc(NS(=O)(=O)c2ccc(NC(=O)Cn3c(=O)oc4ccccc43)cc2)n1	-14.9%
Cc1c(C)c2ccc(O[C@@H]3O[C@H](CO)[C@H](O)[C@H](O)[C@H]3O)c(C)c2oc1=O	8.2%
O=C(COC(=O)c1ccc(S(=O)(=O)N2CCOCC2)cc1)Nc1ccccc1OC(F)F	-6.0%
O=C(NC1CC1)C1CCN(C2CCN(C(=O)/C=C/c3cccc(F)c3F)CC2)CC1	-5.8%
COc1ccc(Cl)cc1NC(=O)CN(C)C(=O)CCc1nc2ccccc2c(=O)[nH]1	-16.0%
CN1C=CC=C/C1=C1\SC(=S)N(C2CCCCC2)C1=O	-21.4%
O=C(O)CCCC(=O)Nc1ccccc1-n1ccnc1	1.0%
Cc1ccc(NC(=O)C2OCCc3ccccc32)cc1 (stereo not drawn)	-11.2%
O=C1COc2ccc(C(=O)COC(=O)CCSc3ccccc3)cc2N1	-13.0%
CC(C)(C)c1ccc(OCCC(=O)Nc2cccc(S(=O)(=O)NC3=NCCCCC3)c2)cc1	-9.1%
S=C(NNc1cccc(Cl)c1)NC1CCCCC1	?
CC1=CC(=C2N=C(c3ccccc3)OC2=O)C=C(C)O1	0.4%
CN(CC(=O)N1CCOCC1)S(=O)(=O)c1cc(Cl)ccc1Cl	12.6%
COc1ccccc1C(=O)NC(=S)Nc1ccc2[nH]c(=O)[nH]c2c1	6.4%
Cc1ccc(CNC(=O)c2ccccc2CCc2ccccc2)cc1	10.1%
CC1CCC(NC(=O)CN2C(=O)NC(C)(C)C2=O)CC1 (stereo not drawn)	8.0%
Cc1cc2[nH]c(=O)c(=O)[nH]c2cc1S(=O)(=O)N1CCN(c2ccccc2F)CC1	-1.4%&5.8%
COc1ccc(CNC(=O)CSc2nnnn2-c2ccc(O)cc2)cc1	-1.4%
CCOC(=O)N1CCC(NC(=O)CS(=O)(=O)Cc2nc(-c3cccc(Cl)c3)oc2C)CC1	4.5%

VDR inhibitor: entries above that show a hit.
SMILES	VDR inhibitor
COc1ccc(/C=C2/C(=O)ON=C2c2ccccc2)cc1OC	39.8µM*
CCCCNC(=O)c1ccc2nc(-c3ccco3)c(-c3ccco3)nc2c1	79.4µM*
N#CC(C#N)=C(N)/C(C#N)=C/c1cc(O)c(O)c(O)c1	39.8µM*!
